MT1-MMP act inh – blocks activation of human MT1-MMP | P50281 | HT1080 RFP-PRO-GFP cells, GFP/RFP ratio fluorescence, overnight; percent of plate control window, DMSO zero | GFP/RFP ratio change, % at 20 µM | 360,000 tested, 0.061% active | AID 651647;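 active means GFP/RFP ratio change of at least 30% with cell ATP level not reduced by more than half and red fluorescence within 50% of control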; further: strong numbers were not always called active
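Test system: HT1080 RFP-PRO-GFP cells; Benchmarks: DMSO and RFP-L50D-GFP cell wells; Timing: cells overnight before dosing, compound overnight, 37 °C, 5% CO2; Compound: one 20 µM compound dose with 1% DMSO; Read-out: GFP/RFP fluorescence ratio.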
Yeast UUG start – modulators of start codon recognition fidelity in yeast; S. cerevisiae UUG-firefly luciferase reporter, luminescence/redox ratio; activity score, % at 18.7 µM; 350,000 tested, 0.13% active; AID 602363;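 active means replicate mean at a twofold rise or more, about +100% in these data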;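 further: firefly luciferase made from a UUG start codon reports start codon fidelity; reporter light over untreated wells divided by growth signal over untreated wells; some hits fall short of that in this replicate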
PABP polyA inh – PABP-poly(A) binding inhibition. P11940. PABP-poly(A) RNA binding, fluorescence polarization. inhibition, % at 35 µM. 290,000 tested, 1% active;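 active means 50% or more with normal probe brightness, or confirmed in later tests; inconclusive means above 50% with abnormal brightness, or retests that disagree; inactive means below 50% or failed in later tests; about a fifth of its hits are not listed in these tables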;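 further: calls also rest on retests at 20 µM and on dose response follow-up; controls were probe without protein and protein plus probe with vehicle; some compounds called inactive have numbers as strong as hits; many hits fall short of the cut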
Target sequence (P11940 whole entry, looked up): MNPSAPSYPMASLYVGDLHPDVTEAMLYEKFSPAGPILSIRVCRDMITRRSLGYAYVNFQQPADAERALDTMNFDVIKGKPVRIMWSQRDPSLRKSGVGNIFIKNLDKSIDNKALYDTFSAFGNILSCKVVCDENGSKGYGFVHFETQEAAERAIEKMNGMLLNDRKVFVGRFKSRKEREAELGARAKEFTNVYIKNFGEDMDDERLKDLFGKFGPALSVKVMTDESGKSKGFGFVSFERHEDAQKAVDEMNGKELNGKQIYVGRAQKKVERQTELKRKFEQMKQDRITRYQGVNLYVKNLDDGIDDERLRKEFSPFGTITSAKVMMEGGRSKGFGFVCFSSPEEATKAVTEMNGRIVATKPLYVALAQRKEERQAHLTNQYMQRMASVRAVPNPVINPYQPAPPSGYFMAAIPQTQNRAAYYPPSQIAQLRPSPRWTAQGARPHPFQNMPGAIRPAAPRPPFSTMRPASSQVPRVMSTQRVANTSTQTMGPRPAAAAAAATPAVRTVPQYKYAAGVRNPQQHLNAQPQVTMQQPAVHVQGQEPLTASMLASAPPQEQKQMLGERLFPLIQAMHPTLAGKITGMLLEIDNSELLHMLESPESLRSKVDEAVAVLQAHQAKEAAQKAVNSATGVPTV
eIF4H FP inh – inhibitors of RNA binding by human eIF4H; Q15056; eIF4H fluorescence polarization binding assay; 290,000 tested, 0.94% active; AID 2012; inhibition, % at 35 µM;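 active means 50% or more with normal probe brightness, or confirmed in later tests; inconclusive means above 50% with abnormal brightness, or retests that disagree; inactive means below 50% or failed in later tests; about a fifth of its hits are not listed in these tables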;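 further: calls also rest on retests at 20 µM and on dose response follow-up; 0% = protein and probe with vehicle and 100% = probe without protein; strong numbers were not always called active; many hits fall short of the cut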
Rce1 inhib – inhibitors of yeast Ras-converting enzyme | 290,000 tested, 0.27% active | yeast membranes, quenched prenylated peptide cleavage fluorescence | Q03530 | calls only;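 active means fall in fluorescence gain of 50% or more versus controls, with final raw signal at or below 3038400; inconclusive means same 50% fall but final raw signal above 3038400; inactive means fall in fluorescence gain under 50%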;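 further: plate controls were neutral control wells for no effect and wells lacking membranes for full effect; tested at 10 µM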
CSC inhib – blocks cancer stem cells; inhibition, % at 7.5 µM; cancer stem cell-like cells viability, luminescence; AID 2717; 300,000 tested, 1.1% active;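 active means mean at 75% or more and at least half the replicates too; inconclusive means mean and replicates disagree; tested in HMLE shEcad cells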;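 further: 0% = median of negative and 100% = median of positive control wells; the first replicate is given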
Env fusion inh – inhibitors of HIV Env-mediated cell fusion | HeLa-JRFL Env/CEM21 cell fusion, luciferase | inhibition, % at 12.3 µM | 360,000 tested, 1.1% active | AID 651610;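 active means mean replicate inhibition score of at least 50 and every replicate individually at or above 50; inconclusive means only one of the two criteria met; inactive means mean below 50 and not all replicates reaching 50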;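 further: 0% = plate neutral controls and 100% = maraviroc near 300 nM; one replicate is shown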
eIF4H FP inh retest – further read-out of eIF4H FP inh, marked with its call; inhibition, %; compound at 20 µM; confirmation average;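 mean of two retest wells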
PABP polyA inh retest – also measured in PABP polyA inh; calls as there; inhibition, %; compound at 20 µM; confirmation repeats;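 mean of two retest wells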
MT1-MMP act inh RFP – also measured in MT1-MMP act inh; calls as there; RFP signal change, %; measured here: RFP expression control read;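 0 = vehicle wells; hits needed this value within 50% of zero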
The depositor's hits bear a star; i = inactive; ? = inconclusive; . = not tested or not shown; & = joins results of further samples; [ ] = remark or other dose. This is a subset (hit frequency here may not be typical).

SMILES | MT1-MMP act inh | MT1-MMP act inh RFP | Yeast UUG start | PABP polyA inh | eIF4H FP inh | Rce1 inhib | CSC inhib | Env fusion inh | others
Nc1nc2nc(-c3ccccc3)cc(=O)n2[nH]1 | 4 | 1 | . | 5 | 3 | i | -9 | 5
CCCc1cc(=O)[nH]c(SCC(=O)Nc2ccc(N3CCCCC3)cc2)n1 | 5 | -2 | -8 | . | . | . | -2 | -8
O=C(CN(Cc1ccccc1)C(=O)CNS(=O)(=O)c1ccccc1)NCC1CCCO1 (centres undefined) | 0 | -3 | 8 | 10 | 7 | i | 11 | 1
Cc1nc(N2CCN(C)CC2)c2cc(-c3ccccc3)sc2n1 | -6 | 1 | -2 | 94 | -6 | . | 6 | 2 | eIF4H FP inh retest=-14;PABP polyA inh retest=8
Cc1nc2ncnn2c(C)c1CCC(=O)N1CCc2ccccc2C1 | 4 | 1 | -18 | -4 | -16 | i | -13 | -35
Cn1c(N)c(C(=O)COC(=O)C2=NNC(=O)CC2)c(=O)n(C)c1=O | 3 | 3 | -13 | 6 | 4 | i | 1 | -3
Cc1[nH]c2ccccc2c1SCc1ccccc1 | 0 | -1 | -9 | 2 | -4 | i | 37 | -15
COC(=O)NNC(=O)c1ccc(C(C)(C)C)cc1 | -7 | 2 | -19 | 0 | -2 | i | -13 | 7
O=C(NCCSc1ccccn1)c1ccc(Cl)cc1 | 9 | 5 | -39 | -9 | 4 | i | -11 | -67
COc1cccc(NC(=O)CSc2nnc(CNC(=O)c3ccccc3F)o2)c1 | 2 | 7 | -24 | -3 | -8 | i | 3 | -9
CC(=O)N1CCOc2ccc(S(=O)(=O)NCc3ccc(C)cc3)cc21 | -2 | -7 | -5 | -4 | -9 | i | 2 | -8
COc1ccc(C(C)NC(=O)c2ccoc2C)cc1OC (centres undefined) | 6 | -1 | -8 | -11 | 11 | i | 1 | -11
O=c1c2c3c(sc2nc2n1CCCS2)CCCC3 | -3 | -11 | -8 | 0 | 11 | . | -6 | -112
Cc1cc(C(=O)NNC(=O)c2ccc(Cl)c(S(N)(=O)=O)c2)c(C)o1 | -2 | 4 | -8 | . | . | . | -13 | 2
CCCc1nn(-c2cc(Cl)ccc2OC)c2c1C(=O)CCC2 | 1 | -2 | -8 | -5 | -3 | i | -4 | 19
CSCC[C@H](NC(=O)OC(C)(C)C)c1nnc(SCC=C(C)C)o1 | 7 | 6 | -14 | 0 | 3 | i | -17 | 10
COc1ccc(C(CNC(=O)COc2ccccc2)N2CCOCC2)cc1 (centres undefined) | 2 | 0 | -22 | . | . | i | -1 | 1
COc1cccc(CN2CCNC(=O)C2CC(=O)NC2CCCCC2)c1OC (centres undefined) | -4 | -1 | -11 | 14 | 13 | i | . | -1
Cc1ccc(NC(=O)C(OC(=O)c2ccc(C=O)cc2)c2ccccc2)cc1Cl (centres undefined) | 0 | 0 | . | 1 | 11 | i | -7 | .
COc1cc(/C=C2/NC(=O)N(Cc3ccccc3F)C2=O)ccc1Oc1ccc([N+](=O)[O-])cn1 | 0 | -5 | . | -4 | 0 | i | -6 | 31
CC1CCCCC12NC(=O)N(Cc1cc(=O)n3ccsc3n1)C2=O (centres undefined) | -10 | -1 | -5 | 15 | 30 | i | -19 | -11
CC(C)COc1ccc(C(=O)OC2CC(C)(C)OCC2CN(C)C)cc1 (centres undefined) | 3 | 0 | 4 | 6 | -16 | i | 37 | .
O=[N+]([O-])c1ccc(S(=O)(=O)N(CC(O)CN2CCCCC2)c2ccccc2)cc1 (centres undefined) | 4 | 4 | -5 | 0 | -6 | i | . | -7
CCN(CC)CC#CCC(C)(c1ccccc1)c1ccccc1 | -7 | -8 | -2 | 0 | 1 | i | 24 | 65*
COCCn1nnnc1CN1CCC(NC(=O)Nc2cccc(OC)c2)CC1 | 0 | 1 | -9 | -12 | -19 | i | -1 | -51
CCCCN(Cc1ccccc1)S(=O)(=O)c1ccc2c(c1)n(C)c(=O)c(=O)n2C | -6 | -7 | 1 | 5 | -5 | i | . | -10
O=C(c1cc(C2CCCCN2S(=O)(=O)c2ccc(F)cc2F)on1)N1CCOCC1 (centres undefined) | -4 | -5 | 2 | . | . | . | . | -1
COCCc1ncc(CN2CCC(C(=O)Nc3ccc(-n4cccn4)cc3)CC2)cn1 | -4 | -3 | -7 | -16 | -3 | i | -11 | -7
CC1(C)Cc2ccccc2C(NNC(=O)c2cccnc2)=N1 | 0 | -1 | -18 | 6 | -8 | i | -9 | .
O=C(NC(CO)c1ccccc1)c1ccco1 (centres undefined) | 0 | 1 | 0 | 8 | -3 | i | . | .
Cc1ccc(C)c(NC(=O)CN(C)C(=O)c2ccc(-c3cccc(C(F)(F)F)c3)o2)c1 | -2 | -2 | -12 | . | . | i | -5 | 16
Cc1ccc(C(=O)C(NC(=O)c2ccco2)N2CCOCC2)cc1 (centres undefined) | 0 | 1 | -15 | -11 | -7 | i | -6 | -31
COc1ccc(CCNC(=O)CSc2nncn2N)cc1OC | -1 | 1 | 1 | -2 | -10 | i | 1 | -12
Cc1cccn2c(CN(C)CCC3CCCCO3)c(C(=O)N3CCCCC3)nc12 (centres undefined) | -2 | 4 | . | -2 | -3 | i | -12 | 4
NC(N)=NN=C1CCCCCCCCCCC1 | 1 | -1 | -4 | 0 | -9 | i | 11 | 17
CC(C)(C)C1CCc2c(sc(NC(=O)C3CCCO3)c2C(N)=O)C1 (centres undefined) | -3 | -5 | 2 | 13 | -14 | i | -10 | .

Next part (4 carried over from the part before).
SMILES | MT1-MMP act inh | MT1-MMP act inh RFP | Yeast UUG start | PABP polyA inh | eIF4H FP inh | Rce1 inhib | CSC inhib | Env fusion inh | others
COc1ccc(CCNC(=O)CSc2nncn2N)cc1OC | -1 | 1 | 1 | -2 | -10 | i | 1 | -12
Cc1cccn2c(CN(C)CCC3CCCCO3)c(C(=O)N3CCCCC3)nc12 (centres undefined) | -2 | 4 | . | -2 | -3 | i | -12 | 4
NC(N)=NN=C1CCCCCCCCCCC1 | 1 | -1 | -4 | 0 | -9 | i | 11 | 17
CC(C)(C)C1CCc2c(sc(NC(=O)C3CCCO3)c2C(N)=O)C1 (centres undefined) | -3 | -5 | 2 | 13 | -14 | i | -10 | .
Cc1ccc(C)c(NC(=O)CN(C)C(=O)Cc2coc3cc(C)c(C)cc23)c1 | 5 | 3 | -13 | . | . | i | -4 | .
Cc1cccc(C(=O)Nc2ccc(C(=O)N3CCCCC3C)cc2)c1 (centres undefined) | -4 | 1 | -6 | -18 | -7 | i | -3 | -7
COc1ccc2[nH]c(=O)c(CN(CC3CCCO3)S(=O)(=O)c3ccccc3)cc2c1 (centres undefined) | -1 | 2 | . | -1 | -12 | i | -10 | 19
O=C(NCCNc1ccc([N+](=O)[O-])cc1)c1ccco1 | 1 | 1 | . | -5 | -12 | i | -4 | -25
CCC1(C2=CCCCC2)C(=O)NC(=S)N=C1N (centres undefined) | 3 | 8 | -15 | . | . | . | . | 0
COC(=O)Cn1c(=NC(=O)c2ccc([N+](=O)[O-])s2)sc2cc(Br)ccc21 | . | . | . | -1 | 3 | i | 34 | .
C/C=C/c1cnc2c(c1)C(=O)N([C@@H](C)CO)C[C@H](C)[C@@H](CN(C)S(=O)(=O)c1ccc(C)cc1)O2 | 7 | 4 | -1&2&7 | . | . | . | . | 5&2[16.7 µM]
CC(C(=O)Nc1ccccn1)(c1ccccc1)c1ccccc1 | 1 | 1 | -10 | 2 | -12 | i | -8 | 30
Cc1nc2ncnn2c(C)c1CCC(=O)NC(C)c1ccc2c(c1)OCCO2 (centres undefined) | 0 | 4 | -18 | -5 | 3 | i | -3 | -43
Cc1ccc(NNC(=O)c2cccs2)cc1Cl | 8 | 0 | -12 | 7 | 11 | i | 90* | 12
O=C(N/N=C\c1cn(-c2ccccc2)nc1-c1ccccc1)c1ccc(Br)o1 | -5 | -7 | -23 | -2 | -15 | i | 35 | .
O=C(Nc1cccc2c1CCCC2)c1ccc(Br)o1 | 0 | -2 | -13 | 5 | -2 | i | 14 | .

The last 3 records of the section before are carried over, then new ones follow:
SMILES | MT1-MMP act inh | MT1-MMP act inh RFP | Yeast UUG start | PABP polyA inh | eIF4H FP inh | Rce1 inhib | CSC inhib | Env fusion inh | others
Cc1ccc(NNC(=O)c2cccs2)cc1Cl | 8 | 0 | -12 | 7 | 11 | i | 90* | 12
O=C(N/N=C\c1cn(-c2ccccc2)nc1-c1ccccc1)c1ccc(Br)o1 | -5 | -7 | -23 | -2 | -15 | i | 35 | .
O=C(Nc1cccc2c1CCCC2)c1ccc(Br)o1 | 0 | -2 | -13 | 5 | -2 | i | 14 | .
CCOC(=O)CSC1=C(C#N)C(c2sccc2C)CC(=O)N1 (centres undefined) | 0 | -12 | -1 | -7 | -5 | i | 78* | 21
CC(C)(C)NC(=O)NC(=O)COC(=O)C1(C)CC1(Cl)Cl (centres undefined) | 0 | 2 | . | 9 | 10 | i | -4 | 1
CCOC(=O)C1=CCN(S(=O)(=O)c2ccc(C)cc2)C1c1ccc(C(C)C)cc1 (centres undefined) | -5 | -7 | 6 | . | . | . | . | 22
COc1ccccc1NC(=O)CSc1nc(N)cc(N)n1 | -5 | -3 | . | -2 | -3 | i | -3 | 15
O=C(N/N=C/c1cccnc1)c1ccccc1OCc1ccc(Br)cc1 | -3 | -8 | -16 | 10 | 8 | i | -3 | 16
COc1ccccc1NCC(=O)c1ccc(C)c(C)c1 | 1 | 6 | -7 | 1 | -2 | i | -8 | 10
CCN(C(=O)COC(=O)Cn1c(C)csc1=O)c1c(N)n(Cc2ccccc2)c(=O)[nH]c1=O | -4 | -2 | -11 | . | . | i | -13 | ?
Cc1ccccc1NC(=O)c1c(C)cc(=O)oc1C | -1 | 0 | -15 | -12 | -4 | i | -5 | 7
CC1(C(=O)Nc2ccc3ccccc3c2)CC1(Br)Br (centres undefined) | 0 | 3 | . | -4 | -6 | i | 21 | 13
Cc1ccc(S(=O)(=O)N2CCN(CCc3ccccc3)CC2)c(C)c1 | 1 | -6 | 2 | 3 | 17 | i | 14 | 20
CC(NC(=O)CN(Cc1ccccc1)S(=O)(=O)c1ccccc1)c1cccnc1 (centres undefined) | 7 | 1 | -14 | . | . | . | -5 | .
CC1CCN(C(=O)CNC(=O)Cc2ccccc2)CC1 | -1 | 4 | -16 | -7 | 1 | i | . | -2
Cc1noc(NS(=O)(=O)c2ccc(NC(=O)Cc3ccc([N+](=O)[O-])cc3)cc2)c1C | -2 | 2 | -6 | 18 | -7 | . | 4 | -16

Screening results (PubChem BioAssay)
